rRNA inh HTS: inhibitors of bacterial rRNA selective over humanized ribosomes; actives 1.6% (n = 350,000); E. coli WT GFP vs humanized-ribosome RFP mutants, fluorescence, 24 h; stronger effect = lower value; DMSO median 0, no signal -100; GFP signal change (wild-type ribosome), % (no concentration beside the values);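 active = significant combined selectivity score with lowered wild-type GFP, culture density cut under 30%, mutant RFP and density less affected; inactive = any of these conditions unmet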; note: one replicate is shown; some compounds called inactive have numbers as strong as hits
ALR inh: inhibitors of human sulfhydryl oxidase ALR | inhibition, % (no concentration beside the values) | purified ALR, DTT oxidation, H2O2 HRP-luminol luminescence | actives 3.8% (n = 290,000) | P55789;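 active = mean and each replicate at 75% or more; inconclusive = only one of the two met; inactive = neither met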;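 note: stock transfer was 7.5 nL into about 7.5 µL; 0% = neutral wells and 100% = wells with inactivated enzyme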
Target sequence (P55789 whole entry, looked up): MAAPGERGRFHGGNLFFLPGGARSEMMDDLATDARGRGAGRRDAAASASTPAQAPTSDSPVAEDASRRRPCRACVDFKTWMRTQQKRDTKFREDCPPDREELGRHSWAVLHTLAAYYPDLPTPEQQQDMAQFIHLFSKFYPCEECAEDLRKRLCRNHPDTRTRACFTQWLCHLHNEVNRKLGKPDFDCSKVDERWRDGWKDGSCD
FGF22 binding: FGF22 (human) thermal shift binding. actives 1.5% (n = 340,000). Q9HCT0. calls only at 9.99 µM. recombinant FGF22 thermal shift, SYPRO orange fluorescence; percent of sucrose octasulfate shift, DMSO zero. AID 651658;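 active = melting point raised past a set limit in the mean and every replicate; inconclusive = no clear call; three in four hits are not shown here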
Target sequence (Q9HCT0 whole entry, looked up): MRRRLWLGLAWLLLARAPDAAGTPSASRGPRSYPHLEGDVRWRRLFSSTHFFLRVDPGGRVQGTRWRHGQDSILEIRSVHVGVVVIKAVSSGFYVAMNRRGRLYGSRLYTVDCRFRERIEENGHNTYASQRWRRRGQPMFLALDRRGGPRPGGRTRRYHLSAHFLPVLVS
Vif TR-FRET: HIV-1 Vif–A3G interaction blockers – biochemical, TR-FRET, GST-Vif 1-94, biotin-A3G peptide, dose response retest, primary screen (AID 1117319). TR-FRET GST-Vif / biotin-A3G peptide binding; higher % means a stronger effect; test concentration not given here; strong numbers were not always called active. inhibition, %, or IC50 in µM where a hit was titrated. actives 0.57% (n = 260,000);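 active = above the screen mean plus three standard deviations and confirmed in dose response; inconclusive = results disagree or hit not tested in dose response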;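 note: Vif residues 1-94 fused to GST binding biotinylated APOBEC3G peptide 110-148; 0% = full assay without inhibitor and 100% = GST in place of GST-Vif; retest series ran down from 100 µM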
HNF4A DNA FP: change in binding of human HNF4 alpha to DNA; HNF4a-FITC DNA binding, fluorescence polarization, 1 h; activity change, % at 10 µM; actives 0.3% (n = 360,000); in the data active = activity change above about 30%, passing the limit was not always enough;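 note: controls were the assay level and a saturating level of protein; the project sought stronger binding though the title names inhibitors; some compounds called inactive have numbers as strong as hits; positive values seem to mean higher polarization but the record does not say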
MLL AF4-AF9 inh: MLL-AF4/AF9 protein interaction inhibition | P42568 | AlphaScreen, biotin-AF4 peptide binding to FLAG-AF9 | inhibition, % at 10 µM | actives 0.47% (n = 350,000) | AID 651704;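 active = every replicate reaching a set inhibition limit, whatever the replicate mean, cut at about 25% in these data; inconclusive = mean inhibition reaches that limit but some replicates miss it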;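 note: 0% = plate neutral control median and 100% = total signal loss; the record names both 10 and 1 µM as test concentration; the first replicate is given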
Target sequence (P42568 whole entry, looked up): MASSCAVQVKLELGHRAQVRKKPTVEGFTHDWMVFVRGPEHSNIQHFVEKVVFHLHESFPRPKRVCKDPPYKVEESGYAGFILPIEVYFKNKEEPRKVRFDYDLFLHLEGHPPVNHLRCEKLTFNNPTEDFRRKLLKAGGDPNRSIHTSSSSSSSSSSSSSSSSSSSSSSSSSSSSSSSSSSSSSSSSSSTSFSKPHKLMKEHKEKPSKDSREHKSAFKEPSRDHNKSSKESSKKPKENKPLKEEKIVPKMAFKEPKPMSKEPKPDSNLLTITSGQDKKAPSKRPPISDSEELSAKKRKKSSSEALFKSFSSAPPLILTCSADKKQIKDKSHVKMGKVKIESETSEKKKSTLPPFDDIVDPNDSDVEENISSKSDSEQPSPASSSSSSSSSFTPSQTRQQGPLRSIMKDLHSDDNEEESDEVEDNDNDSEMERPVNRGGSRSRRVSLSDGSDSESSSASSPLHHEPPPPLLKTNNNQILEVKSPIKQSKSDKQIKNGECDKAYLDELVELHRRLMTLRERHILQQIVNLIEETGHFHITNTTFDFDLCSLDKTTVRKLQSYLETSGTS
E coli growth: blocks Escherichia coli growth; OD600 absorbance (test concentration not listed); actives 0.21% (n = 330,000); OD600, 23 h; stronger effect = lower value;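 active = OD600 absorbance below the run mean of sample wells minus 3.6 SD, in any replicate, cut at about 0.56 in these data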;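 note: stock transfer was 300 nL into about 60 µL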
rRNA inh HTS OD600: recorded beside rRNA inh HTS, whose call it bears; OD600 change, %; measured here: OD600 growth;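 optical density of the mix in the first replicate; 0 = DMSO median and -100 = no signal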
rRNA inh HTS RFP: further read-out of rRNA inh HTS, marked with its call; RFP signal change, %; measured here: RFP humanized mutant strains;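 first replicate; 0 = DMSO median and -100 = no signal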
The depositor's hits bear a star; i = inactive; ? = inconclusive; · = no result given; + = active, no number; & = joins results of further samples. A portion of the library. The share of hits here may be higher or lower than overall.

Fields: rRNA inh HTS | rRNA inh HTS OD600 | rRNA inh HTS RFP | ALR inh | FGF22 binding | Vif TR-FRET | HNF4A DNA FP | MLL AF4-AF9 inh | E coli growth
COc1cc2c(cc1NC(=O)CN1CCN(S(=O)(=O)c3ccc(F)cc3)CC1)oc1ccccc12
  · | · | · | 4 | · | -9%&-8% | -3.8 | · | 0.71
CS(=O)(=O)N1[C@@H]2Cn3c(ccc(-c4cccc(F)c4)c3=O)[C@H]1[C@@H](C(=O)N1CCOCC1)[C@@H]2CO
  0 | 4 | 1.2 | · | i | · | · | -1.2 | ·
CCS(=O)(=O)N1CCN(c2cc3c(cc2[N+](=O)[O-])n(C)c(=O)n3C)CC1
  7 | 7 | 0.6 | 2 | i | · | 4.1 | -0.7 | 0.71
CC(C)NC(=O)Nc1ccc2c(c1)C(=O)N([C@H](C)CO)C[C@@H](C)[C@@H](CN(C)Cc1ccncc1)O2
  1 | -4 | -1.0 | · | i | · | · | -2.6 | ·
O=C(Nc1nnc(-c2ccccc2)o1)c1nc2ccccc2s1
  -29 | -62 | -10.0 | 43 | i | · | -1.5 | -6.7 | 0.69
CC(C)(C)c1ccc(C2=NC(=O)C(CC(=O)O)S2)cc1 (stereo not drawn)
  2 | 4 | -0.6 | 66 | i | -1% | 2.1 | -2.0 | 0.66
CCc1nc(NC(=O)Cc2csc(C)n2)sc1C(=O)OC
  14 | 0 | -5.3 | · | i | -7% | 0.8 | -1.8 | 0.67
COc1ccc(OC)c2[nH]c(=O)c(CCNS(=O)(=O)c3ccc(Cl)cc3)cc12
  · | · | · | -6 | · | 3% | -0.6 | · | 0.72
CCCc1nc2c(C)ccc(C)c2c(N)c1CC
  · | · | · | -4 | · | -3% | -0.8 | · | 0.65
N#Cc1ccc(COc2cccc3cccnc23)cc1
  -1 | -5 | -0.8 | -4 | i | 4% | 0.2 | 0.1 | 0.67
CCS(=O)(=O)Nc1ccc2c(c1)C(=O)N(C)[C@H]1CC[C@H](CC(=O)NCCOC)O[C@@H]1CO2
  -2 | -2 | -0.6 | · | i | · | · | -2.1 | ·
CCC(=O)OCCCCCCOc1ccc(C(=O)O)cc1
  · | · | · | · | · | -1% | -0.3 | · | 0.69
O=C1/C(=C/c2cccnc2)N=C2CCCCCN12
  10 | 15 | -0.4 | -9 | i | · | -3.6 | 1.7 | 0.73
CCCCCCOc1ccc(/C(C)=N/NC2=NCCN2)cc1[N+](=O)[O-]
  -60 | -83 | -23 | -31 | i | 27% | 1.1 | 13 | ·
Cc1cc(Nc2cccc([N+](=O)[O-])c2)c2cccc(C)c2n1
  -1 | 5 | -2.6 | · | i | 2% | 4.6 | 5.3 | 0.69
O=C(O)C[C@@H]1CC[C@@H]2[C@H](COC[C@@H](O)CN2S(=O)(=O)c2ccc(F)cc2)O1
  1 | 5 | -5.1 | · | i | · | · | -4.0 | ·
Clc1ccc2ncc(-c3nnnn3-c3ccccc3)c(-c3ccccc3)c2c1
  · | · | · | · | · | -3% | -1.3 | · | 0.71
CC(=O)Nc1ccc(NC(=O)COc2ccc(S(=O)(=O)N3CCCC3)cc2C)cc1
  0 | 8 | -1.4 | -1 | i | · | -0.8 | 1.9 | 0.7
C[C@@H]1CN([C@@H](C)CO)C(=O)c2cc(C#C[C@@H](C)O)cnc2O[C@@H]1CN(C)C(=O)CN(C)C
  6 | 6 | 0.0 | · | i | · | · | -1.5 | ·
Cc1ccc(C2C(C(=O)c3cc4ccccc4o3)=C(O)C(=O)N2CCN(C)C)o1 (stereo not drawn)
  3 | -4 | -8.5 | · | i | · | -1.0 | -1.5 | 0.66
CCCCn1c(N)c(N(CC(C)C)C(=O)c2ccc(OC)c(S(=O)(=O)N3CCOCC3)c2)c(=O)[nH]c1=O
  6 | 8 | -0.2 | · | i | · | -4.5 | -5.2 | 0.72
CO[C@H](CN(C)Cc1ccc2c(c1)OCO2)[C@H](C)CN(C(=O)c1ccccc1)[C@@H](C)CO
  5 | 9 | 2.7 | · | i | · | · | 1.8 | ·
CO[C@@H]1CC[C@@H]2CCOc3ccc(C#N)cc3C(=O)N(C)[C@@H](C)C(=O)N(C)C[C@H]1O2
  3 | 9 | -1.2 | · | i | · | · | 1.5 | ·
COc1ccc(NC(=O)CN(c2ccc([N+](=O)[O-])cc2)S(=O)(=O)c2ccccc2)cc1
  · | · | · | -8 | · | 2% | -0.2 | · | 0.71
C[C@@H]1CN([C@H](C)CO)C(=O)c2cc(NC(=O)Nc3ccc4c(c3)OCO4)ccc2O[C@@H](C)CCCCO[C@@H]1CN(C)C(=O)CCC(F)(F)F
  1 | 2 | 1.5 | · | i | · | · | 4.9 | ·
CCOC(=O)CSc1nc2ccccc2c(=O)n1C
  · | · | · | -7 | · | 10% | 0.5 | · | 0.78
Cc1ccc(CCNS(=O)(=O)c2ccc3c(c2)C(C)(C)C(=O)N3C)cc1
  -11 | -55 | -31 | -3 | i | · | -2.2 | 2.3 | 0.66
O=C(/C=C/c1ccc(Br)cc1)N1CCN(Cc2ccccc2)CC1
  4 | 1 | 0.9 | -6 | i | · | 3.7 | -2.0 | 0.6
Cc1ccc(-n2ncc3c(=O)n(CC(=O)N(C)C)cnc32)cc1
  16 | 10 | 2.8 | -1 | i | · | -3.4 | -4.4 | 0.71
CC1CC(=O)Nc2ccccc2N1 (stereo not drawn)
  3 | 17 | 0.2 | · | i | 5% | 3.4 | -3.7 | 0.64

Nine entries from above, sorted by molecular weight, low to high:
Fields: rRNA inh HTS | rRNA inh HTS OD600 | rRNA inh HTS RFP | ALR inh | FGF22 binding | Vif TR-FRET | HNF4A DNA FP | MLL AF4-AF9 inh | E coli growth
O=C1/C(=C/c2cccnc2)N=C2CCCCCN12
  10 | 15 | -0.4 | -9 | i | · | -3.6 | 1.7 | 0.73
Cc1ccc(CCNS(=O)(=O)c2ccc3c(c2)C(C)(C)C(=O)N3C)cc1
  -11 | -55 | -31 | -3 | i | · | -2.2 | 2.3 | 0.66
Clc1ccc2ncc(-c3nnnn3-c3ccccc3)c(-c3ccccc3)c2c1
  · | · | · | · | · | -3% | -1.3 | · | 0.71
O=C(/C=C/c1ccc(Br)cc1)N1CCN(Cc2ccccc2)CC1
  4 | 1 | 0.9 | -6 | i | · | 3.7 | -2.0 | 0.6
COc1ccc(OC)c2[nH]c(=O)c(CCNS(=O)(=O)c3ccc(Cl)cc3)cc12
  · | · | · | -6 | · | 3% | -0.6 | · | 0.72
CC(=O)Nc1ccc(NC(=O)COc2ccc(S(=O)(=O)N3CCCC3)cc2C)cc1
  0 | 8 | -1.4 | -1 | i | · | -0.8 | 1.9 | 0.7
CS(=O)(=O)N1[C@@H]2Cn3c(ccc(-c4cccc(F)c4)c3=O)[C@H]1[C@@H](C(=O)N1CCOCC1)[C@@H]2CO
  0 | 4 | 1.2 | · | i | · | · | -1.2 | ·
CCCCn1c(N)c(N(CC(C)C)C(=O)c2ccc(OC)c(S(=O)(=O)N3CCOCC3)c2)c(=O)[nH]c1=O
  6 | 8 | -0.2 | · | i | · | -4.5 | -5.2 | 0.72
C[C@@H]1CN([C@H](C)CO)C(=O)c2cc(NC(=O)Nc3ccc4c(c3)OCO4)ccc2O[C@@H](C)CCCCO[C@@H]1CN(C)C(=O)CCC(F)(F)F
  1 | 2 | 1.5 | · | i | · | · | 4.9 | ·

Following part
Fields: rRNA inh HTS | rRNA inh HTS OD600 | rRNA inh HTS RFP | ALR inh | FGF22 binding | Vif TR-FRET | HNF4A DNA FP | MLL AF4-AF9 inh | E coli growth
CCCCN(CC)Cc1c(O)ccc2c(-c3ccccc3)cc(=O)oc12
  -19 | -24 | -5.4 | -16 | i | 5% | -2.9 | -4.1 | 0.69
COc1ccc(S(=O)(=O)N2C[C@@H](O)COC[C@@H]3O[C@@H](CC(=O)N(C)C)CC[C@H]32)cc1
  -1 | -9 | -0.9 | · | i | · | · | 3.4 | ·
COc1ccc2cc(CN(CC3CCCO3)S(=O)(=O)c3ccccc3Cl)c(=O)[nH]c2c1 (stereo not drawn)
  -36* | -21* | 0.7* | 2 | · | -2% | 0.6 | · | 0.69
COc1ccccc1C(=O)Nc1cc2cc(Cl)ccc2oc1=O
  · | · | · | · | · | -5% | 2.5 | · | 0.71
COc1ccc(NC(=S)N/N=C/c2cccn2Cc2ccc(F)cc2Cl)cc1
  -11 | 6 | 20 | -6 | i | 13% | 7.2 | 0.6 | ·
CC(=O)c1ccccc1OC(=O)COc1ccc([N+](=O)[O-])cc1
  9 | 16 | 2.7 | 6 | i | 0% | 0.8 | -1.2 | 0.68
COc1ccc(NC(=O)Nc2ccc3c(c2)C(=O)N([C@@H](C)CO)C[C@H](C)[C@H](CN(C)S(=O)(=O)c2cccs2)O3)cc1
  1 | -8 | -1.8 | · | i | · | · | -0.7 | ·
NC(=O)c1oc2ccccc2c1NC(=O)C1COc2ccccc2O1 (stereo not drawn)
  8 | 16 | -3.7 | -37 | i | -32% | -1.7 | -3.0 | 0.71
O=C(Nc1ccc(Cl)cc1)c1cccs1
  · | · | · | · | · | 11% | 1.4 | · | 0.68
Cc1ccc(S(=O)(=O)N[C@H]2C=C[C@H](CC(=O)NCCCN(C)C)O[C@H]2CO)cc1
  2 | 2 | -0.9 | · | i | · | · | 1.0 | ·
Cc1ccc(Cn2c(=O)n(Cc3ccco3)c(=O)c3ccccc32)cc1
  · | · | · | · | · | ? | 2.2 | · | 0.78
C[C@@H]1CN([C@H](C)CO)C(=O)CCCn2nncc2CO[C@@H]1CN(C)Cc1ccc(O)cc1
  2 | 6 | -0.6 | · | i | · | · | -0.4 | ·
CCCN(CC(=O)Nc1ccc(F)c(F)c1F)CC(=O)Nc1c(Cl)cccc1Cl
  -36 | -64 | -13 | · | i | · | 1.4 | 1.2 | 0.71
COc1ccc2nc(C)c(C(N)=O)cc2c1
  -6 | 14 | -1.1 | · | i | · | 1.6 | -7.5 | 0.72
CCc1nc2c(OCc3ccc(F)c(F)c3)cccn2c1N(C)C(=O)CC(C)C
  -23 | -42 | 5.6 | · | i | · | -1.6 | 0.7 | ·
O=C(Nc1ccsc1C(=O)O)c1cccc(C(F)(F)F)c1
  -21 | -13 | -12 | 7 | + | -1% | 5.8 | 0.0 | ·
COCCNC(=O)C1CCCN(c2nn3c(=O)cc(C)nc3s2)C1 (stereo not drawn)
  · | · | · | 2 | · | 2% | 1.9 | · | 0.7
O=C(OCc1nc(-c2ccccc2Cl)no1)c1ccco1
  0 | -12 | -2.7 | -1 | i | 4% | 2.0 | -2.3 | 0.7
O=C(COc1ncnc2ccccc12)Nc1ccccc1[N+](=O)[O-]
  2 | -2 | -3.8 | 14 | i | 5% | 1.7 | -7.7 | 0.71
Cc1nn(C)cc1CNC(=O)CCC(=O)O
  · | · | · | -1 | · | 2% | -0.8 | · | 0.68
Cn1nnnc1SCCNCc1ccccc1OCc1ccccc1Cl
  -14 | -3 | -3.8 | · | i | 2% | -4.3 | -7.0 | 0.65
O=C(CC[C@H]1O[C@@H](n2cnc3c(NC(=O)c4ccccc4)ncnc32)[C@H](O)[C@@H]1O)NCCCN1CCCC1=O
  8 | 10 | -3.7 | · | i | · | 4.4 | -0.6 | ·
O=C(c1ccc(Cl)c(S(=O)(=O)N2CCOCC2)c1)N1CCc2ccccc2C1
  -3 | -6 | -1.7 | 2 | i | · | 0.8 | 2.0 | 0.65

Screens: PubChem, several laboratories
